VDR inhibitor – vitamin D3 receptor (human) inhibition; P11473; VDR-SRC2-3 peptide fluorescence polarization, 2 h; Potency, µM, for the others: max response, negative = inhibition, usual class: inhibitors; 0.93% of 400,000 active; AID 504847; active means well fitted inhibition curve with a large enough effect; inconclusive means small, poorly fitted or top-dose-only effect, or another doubt; inactive means no such curve, though single readings can be large or run the other way; further: series mostly up to about 120 µM
Target sequence (P11473 whole entry, looked up): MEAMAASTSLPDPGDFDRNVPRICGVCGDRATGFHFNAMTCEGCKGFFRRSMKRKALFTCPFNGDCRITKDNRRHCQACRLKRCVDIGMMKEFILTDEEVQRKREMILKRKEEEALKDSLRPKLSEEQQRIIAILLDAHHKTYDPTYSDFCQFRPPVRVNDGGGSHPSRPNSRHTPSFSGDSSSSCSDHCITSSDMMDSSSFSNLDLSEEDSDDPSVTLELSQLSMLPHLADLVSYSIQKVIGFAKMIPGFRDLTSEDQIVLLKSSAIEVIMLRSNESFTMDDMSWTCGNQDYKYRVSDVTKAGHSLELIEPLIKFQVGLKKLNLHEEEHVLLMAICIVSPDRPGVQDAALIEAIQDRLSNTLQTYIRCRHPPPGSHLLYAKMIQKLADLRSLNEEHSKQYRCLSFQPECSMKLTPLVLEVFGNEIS
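Signal is fluorescence polarization, reporting how far test compounds block the interaction of VDR with the SRC2-3 coregulator peptide after a 2 h room-temperature incubation.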
Numbers without * were called inactive. On the % scale 0 is the no-effect control and ±100 the full control effect; potency means the concentration at half of the fitted maximal effect.

For COc1ccc(C(=O)OCC(=O)c2ccc(Cl)s2)c(OC)c1OC the results were VDR inhibitor -14%.
O=C(NC(=O)c1ccccc1)C1=C(N2CCCC2)COC1=O was read as VDR inhibitor -17%.
Screening COc1ccc(-n2c(SCc3ccccc3F)nc3c([nH]c4ccccc43)c2=O)cc1OC returned VDR inhibitor -9%.
`Cc1cccc(N2C(=S)NC3c4cc(Cl)ccc4OC2(C)C3C(=O)N(C)C)c1` (stereo unspecified) gave VDR inhibitor -5%.
c1ccc2c(c1)OCCOCCOCCOCCOc1ccccc1OCCOCCOCCO2 was read as VDR inhibitor -20%.
Screening CC(=O)c1ccc(NC(=O)CSc2nnc(C3CC3)n2C2CC2)cc1 returned VDR inhibitor -2%.
Screening COc1ccc(NC(=O)N2CCN(CCC#N)CC2)cc1 returned VDR inhibitor -25%.
For CC(C)(C)n1nnnc1C(c1ccc2ncccc2c1)N1CCSCC1 (stereo unspecified) the results were VDR inhibitor -18%.
For CCOCCCNC(=S)N1CCN(Cc2ccc3c(c2)OCO3)CC1 the results were VDR inhibitor -11%.
`O=C(CN(C(=O)CCC(=O)Nc1nccs1)c1ccc2c(c1)OCO2)NCC1CCCO1` (stereo unspecified) gave VDR inhibitor 2%.
Screening Cc1ccc(N=C2SC(C(=O)O)CC(=O)N2C)cc1C (stereo unspecified) returned VDR inhibitor 5%.
Screening CC(=C/c1ccccc1)/C=N/n1cnnc1 returned VDR inhibitor 8%.
CNc1cncc(C(=O)O)c1 was read as VDR inhibitor -11%.
`Cc1ccc(S(=O)(=O)N2CCC(C(=O)OC(C)C(=O)NCc3ccccc3)CC2)cc1C` (stereo unspecified) gave VDR inhibitor -8%.
CCn1c(SCC(=O)Nc2cccc(C)n2)nnc1-c1ccco1 was read as VDR inhibitor -6%.
`COC(=O)c1ccc(CSc2nnc(NC(=O)c3cc4c(s3)CCCC4)s2)cc1` gave VDR inhibitor -3%.
`Cc1cc(C(=O)NCCCc2ccccc2)no1` gave VDR inhibitor -3%.
For CC(C)(C)c1ccc(C(=O)Nc2ccc(Cl)cc2)cc1 the results were VDR inhibitor -12%.
`COc1ccccc1OCC(=O)NC1CCCc2ccccc21` (stereo unspecified) gave VDR inhibitor -19%.
For COc1ccccc1NC(=O)NNC(=O)CCN1CCOCC1 the results were VDR inhibitor 21%.
For O=C(NC12CC3CC(CC(C3)C1)C2)N1CCC(O)CC1 the results were VDR inhibitor 2%.
`C/C=C/c1ccc(OCC(=O)OCC(=O)Nc2c(C)nn(-c3ccccc3)c2C)c(OC)c1` gave VDR inhibitor 2%.
O=C(NC(=S)NNC(=O)c1cc2ccccc2cc1O)c1ccco1 was read as VDR inhibitor inconclusive.
Cc1ccc(C)c(Cn2c(=O)n(Cc3ccccc3)c(=O)c3sc4ccccc4c32)c1 was read as VDR inhibitor -1%.
For Cc1nc(C(=O)N2CCCC(Nc3ccc(C)c(C)c3)C2)cs1 (stereo unspecified) the results were VDR inhibitor 7%.
COc1ccc(N(Cc2cc3cc(OC)ccc3[nH]c2=O)S(C)(=O)=O)cc1 was read as VDR inhibitor -8%.
Screening CCCc1cc(=O)[nH]c(SCc2csc(-c3ccccc3)n2)n1 returned VDR inhibitor -2%.
Cc1ccc(Cn2ncc(C)c2N)o1 was read as VDR inhibitor 1%.
For COc1ccc(OC)c(C2C(C(=O)c3cc4ccccc4o3)=C(O)C(=O)N2c2cc(C)on2)c1 (stereo unspecified) the results were VDR inhibitor -17%.
Screening COc1cc(C(=O)COC(=O)CNC(=O)C2CCCCC2)cc(OC)c1OC returned VDR inhibitor 2%.
For COCCn1c(=N)c(C(=O)NC2CCCC2)cc2c(=O)n3cc(C)ccc3nc21 the results were VDR inhibitor 3%.
Screening O=c1c(Cl)c(N2CCC3(CC2)OCCO3)cnn1C12CC3CC(CC(C3)C1)C2 returned VDR inhibitor -1%.
COc1ccccc1N1CCN(C(=O)C(C)CS(=O)(=O)c2ccc3c(c2)NC(=O)CS3)CC1 (stereo unspecified) was read as VDR inhibitor -16%.
Screening O=C(NNC(=O)c1ccccc1O)c1ccc(NS(=O)(=O)c2ccc(F)cc2)cc1 returned VDR inhibitor 2%.
For CC(C)N(CCNCC(O)COc1ccc(C(C)(C)c2ccccc2)cc1)C(C)C (stereo unspecified) the results were VDR inhibitor 2%.
`O=C1CC2C(CCC23OCCO3)c2ccc3ccccc3c21` (stereo unspecified) gave VDR inhibitor -7%.
Screening CC[C@]12c3[nH]c4ccccc4c3CCN1C(=O)C(CC(=O)NCCCN(C)C)C[C@@H]2C(=O)N1CCN(C(=O)C2CC2)CC1 (stereo partly specified) returned VDR inhibitor 4%.
For Oc1ccc(C[C@@H]2CNCCN2CCc2cccc3ccccc23)cc1 the results were VDR inhibitor -12%.
Screening O=C(Nc1ccc(-n2cnnn2)cc1)c1cn2ccccc2n1 returned VDR inhibitor 17%.
For CCOC(=O)CCn1nnc(N)n1 the results were VDR inhibitor 9%.
COc1cc(C(=O)NCC(c2cccnc2)N2CCc3ccccc3C2)cc(OC)c1OC (stereo unspecified) was read as VDR inhibitor 9%.
`CCCCCC(O)(c1ccc(OC)cc1)C(CN1CCOCC1)c1ccccc1` (stereo unspecified) gave VDR inhibitor -1%.
For N#CCC(=O)Nc1ccc(C(=O)OCC(=O)C23CC4CC(CC(C4)C2)C3)cc1 the results were VDR inhibitor -3%.
O=C(/C=C/c1ccc(F)cc1)NNC(=O)CCN1CCN(Cc2ccccc2)CC1 was read as VDR inhibitor -12%.
For COc1ccc([N+](=O)[O-])cc1C(=O)Nc1ccc(Cc2ccncc2)cc1 the results were VDR inhibitor -8%.
Screening CC1(C)Oc2ccc(C(=O)NN)cc2NC1=O returned VDR inhibitor -17%.
`COc1ccc(NC(=O)c2ccc(-c3ccc(C)c4ccccc34)o2)cc1` gave VDR inhibitor 0%.
`CC1CCN(C(=O)CSc2ccc(-c3ccccc3)nn2)CC1` gave VDR inhibitor -20%.
`COC(=O)c1cccc(NC(=O)/C(=C\c2ccccc2)NC(=O)c2ccccc2Cl)c1` gave VDR inhibitor 6%.
For COC(=O)c1cccc(NC2=NS(=O)(=O)c3ccccc32)c1 the results were VDR inhibitor 20%.
For COc1ccc(-c2nc3scc(CCNS(=O)(=O)c4ccc(Oc5ccccc5)cc4)n3n2)cc1 the results were VDR inhibitor -3%.
`CC(C)C[C@H](NC(=O)C1CC(=O)N(c2ccc3c(c2)OCCO3)C1)C(=O)N1CCCCC1` (stereo partly specified) gave VDR inhibitor -12%.
COc1cccc(C(=O)NC(=S)Nc2ccc(Cl)cc2C(=O)O)c1 was read as VDR inhibitor -24%.
CCCCN(C)C(=O)C(Cc1ccccc1)NS(=O)(=O)c1ccc2c(c1)CCC(=O)N2 (stereo unspecified) was read as VDR inhibitor -24%.
For O=C(/C=C/c1ccc(I)cc1)c1ccc(B(O)O)cc1 the results were VDR inhibitor inconclusive.
Screening CCc1c(O)nc(SCC(=O)Nc2ccccc2OC)n(-c2ccccc2C)c1=O returned VDR inhibitor 3%.
Screening O=C(NC1CCCN(C2Cc3ccccc3C2)C1)c1ccc(F)cc1Cl (stereo unspecified) returned VDR inhibitor 10%.
`CSCCC(C(=O)N1C[C@]2(C)C[C@H]1CC(C)(C)C2)N1C(=O)c2ccccc2C1=O` (stereo partly specified) gave VDR inhibitor 3%.
`CCOC(=O)CSc1nnc([C@H](CC(C)C)NC(=O)OC(C)(C)C)o1` gave VDR inhibitor 9%.
COC(=O)CSc1nnc2n1C(C)(C)Cc1ccccc1-2 was read as VDR inhibitor -2%.
For CCC(C)NC(=O)C1CCN(S(=O)(=O)N2CCC3(CC2)OCCO3)CC1 (stereo unspecified) the results were VDR inhibitor -11%.
For CCCc1ccc2oc(C(=O)N3CCC(N4CCCC(O)C4)CC3)c(C)c2c1 (stereo unspecified) the results were VDR inhibitor 25%.
For COc1cc(C(=O)NCc2cn3ccsc3n2)cc(OC)c1OC the results were VDR inhibitor -14%.
Screening COc1cccc(CN2CCNC(=O)C2CC(=O)NC2Cc3ccccc3C2)c1 (stereo unspecified) returned VDR inhibitor -2%.
`COC(=O)c1cccc(NC(=O)CSc2nnc(-c3ccco3)o2)c1` gave VDR inhibitor -6%.
FC(F)(F)c1cc(NC2CCCCC2)ccn1 was read as VDR inhibitor inconclusive.
Screening CN(C)c1cc[n+](/C(C(=S)Nc2ccc(SC(F)F)cc2)=C(/[O-])c2ccccc2)cc1 returned VDR inhibitor -10%.
For CC(C)c1ccc(C2(C)NC(=O)N(CC(=O)NCC3COc4ccccc4O3)C2=O)cc1 (stereo unspecified) the results were VDR inhibitor 11%.
Screening C[C@H](CO)N1C[C@H](C)[C@@H](CN(C)C(=O)Nc2ccc(C(F)(F)F)cc2)Oc2ccc(NS(=O)(=O)c3cn(C)cn3)cc2C1=O returned VDR inhibitor -11%.
COc1ccc(Cc2nc3ccc(C(=O)NCCSC)cc3o2)cc1 was read as VDR inhibitor -3%.
N#CC(C(=O)NC1CC1)c1nc2ccccc2nc1N1CCN(C/C=C/c2ccccc2)CC1 (stereo unspecified) was read as VDR inhibitor -5%.
For COCCCn1c(=S)[nH]c2ccc(N3CCOCC3)cc2c1=O the results were VDR inhibitor 6%.
`Cc1cc(-c2ccc(Cl)cc2Cl)c(C#N)c(=O)[nH]1` gave VDR inhibitor inconclusive.
`CCCCN(C)C(=O)Cn1cnc2sc(C)c(S(=O)(=O)N3CCC(C)CC3)c2c1=O` gave VDR inhibitor -14%.
`O=C(O)c1c(C(=O)N2N=C3/C(=C/c4ccccc4)CCCC3C2c2ccccc2)cccc1[N+](=O)[O-]` (stereo unspecified) gave VDR inhibitor -8%.
`CC(=O)NC(Cc1ccc(C)cc1)C(=O)NC1CCN(C(=O)c2ccc([N+](=O)[O-])cc2)CC1` (stereo unspecified) gave VDR inhibitor -16%.
Screening CCCOc1ccc(CNC(=O)c2ccc(-n3c(C)cc4c3CCC(C)C4)cc2)cc1 (stereo unspecified) returned VDR inhibitor 1%.
Screening NS(=O)(=O)c1ccc(NNC(=O)c2ccc(F)cc2F)cc1 returned VDR inhibitor -4%.
`CCCCCCCCCCCCN1[C@@H](CC(=O)OC)c2cc(F)cc(F)c2S1(=O)=O` gave VDR inhibitor -15%.
Screening CCOc1ccc(-c2cc(C(=O)NN=C3CCN(C)CC3)[nH]n2)cc1 returned VDR inhibitor -4%.
Screening CO/N=C(\c1nonc1N)N1CCN(c2ccc([N+](=O)[O-])cc2Cl)CC1 returned VDR inhibitor 7%.
For CCOC(=O)c1c[nH]c2c(Cl)ccc(Cl)c2c1=O the results were VDR inhibitor 9%.
Screening O=C(NCc1ccccc1)c1ccc2nc(-c3ccco3)c(-c3ccco3)nc2c1 returned VDR inhibitor 40µM*.
`CC(=O)OCC(NC(=O)C(COCc1ccccc1)NC(=O)OC(C)(C)C)C1OC(n2ccc(=O)[nH]c2=O)C(OC(C)=O)C1OC(C)=O` (stereo unspecified) gave VDR inhibitor 1%.
For COCC(=O)N1CCC2(CC1)CCN(c1ccncc1)CC2 the results were VDR inhibitor 5%.
`CCCCN(C(=O)c1cc2c(s1)CCC2)c1c(N)n(CCCC)c(=O)[nH]c1=O` gave VDR inhibitor -6%.
COc1ccc(NS(=O)(=O)c2cnc(N)nc2)cc1Cl was read as VDR inhibitor -9%.
On1nnc2ccc3ccccc3c21 was read as VDR inhibitor -17%.
`COc1cccc(CC(=O)OC(C)C(=O)NCc2ccc3c(c2)OCO3)c1` (stereo unspecified) gave VDR inhibitor -1%.
`CC(C)c1[nH]nc2c1C(c1cccs1)C(C#N)=C(N)O2` (stereo unspecified) gave VDR inhibitor -22%.

Compounds listed so far containing a cyano group:
Screening COc1ccc(NC(=O)N2CCN(CCC#N)CC2)cc1 returned VDR inhibitor -25%.
For N#CCC(=O)Nc1ccc(C(=O)OCC(=O)C23CC4CC(CC(C4)C2)C3)cc1 the results were VDR inhibitor -3%.
N#CC(C(=O)NC1CC1)c1nc2ccccc2nc1N1CCN(C/C=C/c2ccccc2)CC1 (stereo unspecified) was read as VDR inhibitor -5%.
`Cc1cc(-c2ccc(Cl)cc2Cl)c(C#N)c(=O)[nH]1` gave VDR inhibitor inconclusive.
`CC(C)c1[nH]nc2c1C(c1cccs1)C(C#N)=C(N)O2` (stereo unspecified) gave VDR inhibitor -22%.

4 structures from above, arranged by molecular weight, descending.
`CC(=O)OCC(NC(=O)C(COCc1ccccc1)NC(=O)OC(C)(C)C)C1OC(n2ccc(=O)[nH]c2=O)C(OC(C)=O)C1OC(C)=O` (stereo unspecified) gave VDR inhibitor 1%.
`CCCCCCCCCCCCN1[C@@H](CC(=O)OC)c2cc(F)cc(F)c2S1(=O)=O` gave VDR inhibitor -15%.
Screening NS(=O)(=O)c1ccc(NNC(=O)c2ccc(F)cc2F)cc1 returned VDR inhibitor -4%.
For CCOC(=O)c1c[nH]c2c(Cl)ccc(Cl)c2c1=O the results were VDR inhibitor 9%.

(next part)
For Cc1n[nH]c(C)c1S(=O)(=O)N1CCc2ccccc21 the results were VDR inhibitor -10%.
`COc1cc(NC(=O)c2ccc(OC)c([N+](=O)[O-])c2)ccc1NC(=O)c1cccs1` gave VDR inhibitor 3%.
Cn1cnnc1Sc1nc2c(c(=O)n(C)c(=O)n2C)n1C was read as VDR inhibitor 27%.
For CCCc1cc(Nc2ccccc2OCC)n2ncnc2n1 the results were VDR inhibitor inconclusive.

Assay outcomes from PubChem BioAssay.

These rows are one share of the data (hit frequency here may not be typical).
